# RecA splice inh – Mtb RecA intein splicing inhibitors, primary screen, biochemical, fluorescence, HTS. Protein RecA (Mycobacterium tuberculosis (strain ATCC 25618 / H37Rv)), P9WHJ3. cell-free RecA intein splicing. inhibition, %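 (about 9 µM by stock and volumes)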. actives 0.75% (n = 290,000). AID 2221, 2009; in the data active = inhibition above about 30%; inconclusive = no clear call, values can overlap the other calls;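 also: 0% = vehicle wells and 100% = reference inhibitor control wells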
# Target sequence (P9WHJ3 whole entry, looked up, canonical isoform): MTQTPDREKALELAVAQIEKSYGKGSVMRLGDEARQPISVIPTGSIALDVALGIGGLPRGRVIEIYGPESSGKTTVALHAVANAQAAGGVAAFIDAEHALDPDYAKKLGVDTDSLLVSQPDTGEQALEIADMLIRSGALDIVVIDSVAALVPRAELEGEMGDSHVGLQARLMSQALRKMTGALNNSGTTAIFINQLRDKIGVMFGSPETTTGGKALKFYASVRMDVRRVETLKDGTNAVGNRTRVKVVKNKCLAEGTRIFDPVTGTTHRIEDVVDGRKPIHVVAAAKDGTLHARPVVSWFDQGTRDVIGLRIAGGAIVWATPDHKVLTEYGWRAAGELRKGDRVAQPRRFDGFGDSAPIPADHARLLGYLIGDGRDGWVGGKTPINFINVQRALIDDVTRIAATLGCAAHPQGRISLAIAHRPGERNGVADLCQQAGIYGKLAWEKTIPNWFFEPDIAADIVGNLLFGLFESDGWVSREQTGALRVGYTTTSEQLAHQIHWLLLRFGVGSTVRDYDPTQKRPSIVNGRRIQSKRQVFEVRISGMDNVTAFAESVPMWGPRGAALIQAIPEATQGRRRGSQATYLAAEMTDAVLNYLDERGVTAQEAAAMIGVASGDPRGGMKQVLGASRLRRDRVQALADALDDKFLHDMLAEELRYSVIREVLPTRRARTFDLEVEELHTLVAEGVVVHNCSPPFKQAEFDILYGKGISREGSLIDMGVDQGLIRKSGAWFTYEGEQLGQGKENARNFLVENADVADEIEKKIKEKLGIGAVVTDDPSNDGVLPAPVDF
# YopH inh – YopH tyrosine phosphatase inhibitors, primary screen, biochemical, fluorescence Ex485/Em525 | inhibition, %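 (about 10 µM by stock and volumes)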 | actives 0.16% (n = 140,000);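 active = inhibition of 50% or more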;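 also: controls were vehicle for no effect and minimum signal wells for full effect; inactives centre near -20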
# Mtb growth – M. tuberculosis H37Rv growth inhibitors, H37Rv strain (AID 1626); M. tuberculosis H37Rv growth inhibition; higher % means a stronger effect; inhibition, % at 10 µM; hits with a dose series show IC50 in µM; actives 0.95% (n = 220,000);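 active = confirmed in a dose series; inconclusive = inhibition above 80% but not taken into the dose series; inactive = below 80% or under 30% at every dose of the series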;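 also: bacteria incubated seven days before Alamar blue readout; 0% = bacteria only wells and 100% = bacteria with antibiotic wells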
# Arbovirus anti – antivirals against arbovirus infection, primary screen, cell-based, full library, 10K replicate subset; actives 0.37% (n = 200,000); arbovirus infection cell-based antiviral screen; inhibition, % at 10 µM;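 active = inhibition from about 30%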;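 also: bluetongue infection of BSR cells; cell survival read as ATP light after 72 h; 0% = infected wells without compound and 100% = uninfected wells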
# Mtb betalactam – beta-lactam sensitization of Mtb H37Rv, H37Rv | M. tuberculosis H37Rv growth with meropenem, percent inhibition; hits of this screen are not shown here | inhibition, % at 25 µM | actives 0.27% (n = 330,000);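 active = about 74% or more and at least 40 points above the plate without the antibiotic, then above 30% in a dose series; inconclusive = first-round hits that could not be retested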;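 also: growth measured after seven days incubation then overnight dye step; 0% = bacteria only wells and 100% = bacteria with antibiotic; twin plates without the antibiotic show which effects depend on it; some results filed as inactive read as strong as hits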
# Arbovirus anti repeat – further read-out of Arbovirus anti, marked with its call; inhibition, %; measured here: 10K subset replicate screen; many hits read low in the repeat;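 first of two repeat runs on a subset; 0% = infected and 100% = uninfected wells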
# * = called active by the depositor; ? = inconclusive; · = not tested or not shown. Some of the compounds tested; the hit share may differ from the screen's.
SMILES,RecA splice inh,YopH inh,Mtb growth,Arbovirus anti,Mtb betalactam,others
COc1ccc(/C(N)=N/OC(=O)CN(C)S(=O)(=O)c2ccc(C)cc2)cc1,·,·,6%,3,·,
Cc1ccc(C)c2c1[nH]c1ccc([N+](=O)[O-])cc12,-0.1,6,-5%,3,4,
O=C1C2C(C(=O)N1/N=C/c1cccc([N+](=O)[O-])c1)C1C=CC2C12CC2 (centres undefined),-1.7,-2,2%,4,-3,
COCCCNC(=O)CCc1c(C)nc2c(-c3ccc(F)cc3)c(C)nn2c1C,0.3,·,5%,·,-8,
N#Cc1c(-c2ccc3c(c2)OCO3)csc1N,4.2,-27,-4%,-23,81,
CCOC(=O)C1(CCc2ccccc2)CCN(Cc2cccc3cnccc23)CC1,4.3,·,3%,-12,77,
Cc1cccc(NNC(=O)C(=O)NNc2cccc(C)c2)c1,-2.3,·,69%,·,96,
COCCNC(=O)C1CCC(CNS(=O)(=O)c2ccccc2)CC1 (centres undefined),0.0,·,·,·,2,
CCOc1ccc(CNc2ccc(CNc3ncn[nH]3)cc2)cc1,-2.2,·,8%,-7,10,
CN(C)C(=O)Cn1nc(-c2ccccc2)c2ccccc2c1=O,0.6,7,35%,7,3,
O=C(COC(=O)c1cnccn1)NCCc1ccccc1,-4.8,0,1%,7,0,
CCOC(=O)C[C@H]1c2ccccc2S(=O)(=O)N1C1CC1,-3.2,·,-4%,·,0,
CC(C)Cn1c(CN2CCN(c3ccccc3F)CC2)nc2c1c(=O)[nH]c(=O)n2C,0.0,-28,6%,3,-4,
CCS(=O)(=O)c1ccc2c(c1)N(S(C)(=O)=O)CC(C(=O)NN)O2 (centres undefined),0.0,·,3%,1,-8,
COCC(C)NC(C(=O)Nc1cccc(C(C)=O)c1)c1ccccc1 (centres undefined),0.1,·,6%,0,-17,
COc1ccc(NC(=O)CNC(=O)Cc2ccccc2)cc1,1.1,·,·,·,0,
CC(C)n1nc(C(=O)OCC(=O)c2c[nH]c3ccccc23)c2ccccc2c1=O,-1.6,-18,8%,4,-7,
Clc1ccc(-c2nc3ccccn3c2CN2CCCCC2)cc1,6.6,·,5%,-7,8,
CCCc1nn2c(=O)cc(CSCC(=O)Nc3cccc(OC)c3)nc2s1,-2.4,·,·,·,6,
COc1cc(NC(=O)Cc2ccccc2)cc(OC)c1,-0.9,-38,-7%,-4,10,Arbovirus anti repeat=-2
COc1ccc(N=CC2=C(Nc3ccc(OC)cc3)c3c(C)nn(-c4ccccn4)c3CC2)cc1,·,51*,?,·,100,
CCOC(=O)c1ccc(S(=O)(=O)NNC(=O)c2ccc3c(c2)nc(C)n3CC)cc1,-3.0,·,-2%,6,10,
Cc1cc(=O)[nH]c(SCC(=O)Nc2ccc(C)c(S(=O)(=O)N3CCCCC3)c2)n1,1.2,·,-10%,·,1,
COc1ccc(OC)c(C2NC(=S)NC3=C2N2CCC3CC2)c1 (centres undefined),-0.7,·,2%,7,0,
Cc1ccccc1-n1c(C)nc2ccsc2c1=O,-0.7,·,·,·,-6,

# Continuation:
SMILES,RecA splice inh,YopH inh,Mtb growth,Arbovirus anti,Mtb betalactam,others
O=C(CSc1nnc(-c2ccccc2)n1Cc1ccco1)NCc1ccc2c(c1)OCO2,-0.8,-3,0%,-6,-4,
CCOc1ccc(C(=O)N/N=C(/C)C2C(=O)c3ccccc3C2=O)cc1,4.1,-21,13%,7,-38,
Cc1nc(NC2=NCN(C3CCCCC3C)CN2)nc2ccccc12 (centres undefined),·,1,1%,2,·,
Cc1nnc(SCC2=C(C(=O)O)N3C(=O)C(NC(=O)Cn4nc(C(F)F)cc4C)C3SC2)s1 (centres undefined),-4.1,·,-11%,-3,47,
CN(C)S(=O)(=O)c1cccc(NC(=O)COC(=O)c2ccc([N+](=O)[O-])o2)c1,-1.4,-15,3%,2,-2,
CN(C)CCN(C(=O)c1ccc2ccccc2c1)c1nc2c(F)cccc2s1,1.4,·,·,·,-1,
CCc1onc(C)c1C(=O)Nc1ccc2c(c1)OCO2,1.3,·,-1%,3,-2,
COc1ccc(CCN2CC(C(=O)N(C)CC(=O)Nc3cccc(F)c3)CC2=O)cc1OC (centres undefined),-2.5,·,·,·,-5,
CC1CC2(CCCC2)Nc2ccc(F)cc21 (centres undefined),7.5,·,·,·,-6,
O=c1[nH]cnc2scc(-c3cccs3)c12,-0.3,-33,0%,3,1,
O=C(NCc1ccccn1)C1CCN(S(=O)(=O)c2cc(Cl)ccc2Cl)CC1,2.6,·,9%,-3,-2,
O=C(Cc1ccccc1)NCc1nc2ccccc2[nH]1,-0.8,-15,-2%,·,-3,
CCCc1cc(=O)oc2cc(OCC(=O)Nc3ccc(CN4CCOCC4)cc3)c(Cl)cc12,-1.6,·,·,·,89,
CNS(=O)(=O)c1cccc(C(=O)OCC(=O)N(CCC#N)c2ccccc2)c1,-2.0,·,-1%,2,-9,
O=C(N/N=C\c1cc2c(cc1Cl)OCO2)c1ccc(Br)s1,3.1,·,·,·,7,
Cc1cc(C)n2nc(C(=O)Nc3cccc(S(=O)(=O)N4CCCC4)c3)nc2n1,-1.9,·,-5%,·,-8,
CC(C)(C)c1ccc(OCCC(=O)OCC(=O)NC(=O)NC2CCCC2)cc1,6.3,·,·,·,88,
O=C(NNC(=S)NC(=O)c1ccccc1)c1ccc([N+](=O)[O-])cc1,3.0,·,·,·,98,
O=C(CN1C(=O)C(=O)c2ccccc21)NCCc1ccccc1,3.2,·,-6%,-3,0,
CCOC(=O)C(NC(=O)CC(C)C)(Nc1sc(C)c(CC)c1C#N)C(F)(F)F (centres undefined),3.5,-8,-2%,2,-1,
COC(=O)c1sccc1NC(=O)c1ccc2c(c1)OCO2,9.8,5,3%,7,5,
C=C1CCN(CC(=O)OC)S(=O)(=O)c2ccccc21,-1.3,·,-12%,·,-4,
O=c1c2ccccc2c(-c2ccccc2)nn1-c1cc(Cl)cc(Cl)c1,3.3,·,·,·,7,
O=C(O)C1C2CCC(C2)C1C(=O)NCCc1ccccc1 (centres undefined),0.7,·,·,·,-3,
O=C(c1ccc(Cl)cc1)N(c1ccccn1)C1CCCCC1,·,·,2%,-8,0,

# Copied from above (15 entries):
SMILES,RecA splice inh,YopH inh,Mtb growth,Arbovirus anti,Mtb betalactam,others
O=C(NCc1ccccn1)C1CCN(S(=O)(=O)c2cc(Cl)ccc2Cl)CC1,2.6,·,9%,-3,-2,
O=C(Cc1ccccc1)NCc1nc2ccccc2[nH]1,-0.8,-15,-2%,·,-3,
CCCc1cc(=O)oc2cc(OCC(=O)Nc3ccc(CN4CCOCC4)cc3)c(Cl)cc12,-1.6,·,·,·,89,
CNS(=O)(=O)c1cccc(C(=O)OCC(=O)N(CCC#N)c2ccccc2)c1,-2.0,·,-1%,2,-9,
O=C(N/N=C\c1cc2c(cc1Cl)OCO2)c1ccc(Br)s1,3.1,·,·,·,7,
Cc1cc(C)n2nc(C(=O)Nc3cccc(S(=O)(=O)N4CCCC4)c3)nc2n1,-1.9,·,-5%,·,-8,
CC(C)(C)c1ccc(OCCC(=O)OCC(=O)NC(=O)NC2CCCC2)cc1,6.3,·,·,·,88,
O=C(NNC(=S)NC(=O)c1ccccc1)c1ccc([N+](=O)[O-])cc1,3.0,·,·,·,98,
O=C(CN1C(=O)C(=O)c2ccccc21)NCCc1ccccc1,3.2,·,-6%,-3,0,
CCOC(=O)C(NC(=O)CC(C)C)(Nc1sc(C)c(CC)c1C#N)C(F)(F)F (centres undefined),3.5,-8,-2%,2,-1,
COC(=O)c1sccc1NC(=O)c1ccc2c(c1)OCO2,9.8,5,3%,7,5,
C=C1CCN(CC(=O)OC)S(=O)(=O)c2ccccc21,-1.3,·,-12%,·,-4,
O=c1c2ccccc2c(-c2ccccc2)nn1-c1cc(Cl)cc(Cl)c1,3.3,·,·,·,7,
O=C(O)C1C2CCC(C2)C1C(=O)NCCc1ccccc1 (centres undefined),0.7,·,·,·,-3,
O=C(c1ccc(Cl)cc1)N(c1ccccn1)C1CCCCC1,·,·,2%,-8,0,

# Next part
SMILES,RecA splice inh,YopH inh,Mtb growth,Arbovirus anti,Mtb betalactam,others
CCOc1ccc(CNc2ccc3c(c2)ncn3C(C)(C)C)cc1,-1.6,·,·,·,2,
CCCCCCn1c(N2CCC(C)CC2)nc2c1c(=O)[nH]c(=O)n2C,0.7,-18,12%,-15,3,
Cc1ccc(-c2noc(CCCOc3ccc(Cl)cc3Cl)n2)cc1,2.1,13,4%,-15,-9,
CN(C(=O)CC1C(=O)NCCN1CC1CCCCC1)C1CCOCC1 (centres undefined),-3.1,·,-5%,·,-3,
COC(=O)C1=C(C)NC2=C(C(=O)CC(C)(C)C2)C1c1ccccn1 (centres undefined),-52,-3,-9%,-3,5,
COc1ccc(N2C(=O)CC(Sc3nc4ccccc4s3)C2=O)cc1OC (centres undefined),1.4,·,-5%,2,95,
COc1ccc(C)cc1N(C(=O)CNC(=O)c1ccco1)C(C(=O)NCC1CCCO1)c1ccccc1 (centres undefined),-2.2,·,·,·,7,
O=C(CC12CC3CC(CC(C3)C1)C2)NC(Cc1ccccc1)C(=O)O (centres undefined),-1.2,·,-1%,8,-2,
CC1=C[C@H]2OC(=O)[C@@H](C)[C@H]2C[C@@H]2[C@H]1C[C@@H](O)[C@@]2(C)O,-1.9,·,-6%,·,-3,
O=C(C1CCN(S(=O)(=O)c2ccc(Br)s2)CC1)N1CCc2ccccc21,-0.2,-30,13%,3,-2,
Cc1ccccc1Cn1cnc2ccccc21,-2.1,·,0%,9,-13,
CCOC(=O)N1CCN(CCC(=O)Nc2cc(OC)ccc2OC)CC1,1.4,·,-8%,8,-6,
CC(C)CCc1noc(CN2CCN(CC(=O)NC(C)C)CC2)n1,-1.7,·,1%,·,-2,
C/C(=C\C(=O)c1c(O)cc(C)oc1=O)N(C)C,-2.5,·,·,11,-4,
COCc1cc(=O)[nH]c(-c2csc(C)n2)n1,-1.1,·,-10%,·,-8,
O=C(CSC(=S)N1CCN(c2ccccc2)CC1)Nc1nc(-c2ccccc2)c(-c2ccccc2)o1,-1.0,-1,0%,-11,1,
O=C(O)Cn1cc(C(=O)c2ccccc2)c2ccccc21,6.8,-19,0%,-3,-1,
Cc1ccc(N(C(=O)c2csnn2)C(C(=O)NC2CCCC2)c2ccncc2)c(C)c1 (centres undefined),-1.8,·,·,·,8,
NC(=O)c1ccc(Oc2ncc(C(F)(F)F)cc2Cl)cc1,4.2,·,2%,3,2,
COc1ccc(-n2c(C)ccc2-c2ccccc2)cn1,3.0,·,·,·,-2,
COc1cccc2cc(-c3cc(=O)oc4ccc(O)cc34)oc12,-1.6,·,·,·,67,
COc1ccc(NC(=O)/C(C#N)=C/c2cccnc2)c(OC)c1,1.6,·,·,·,7,
Cc1cc(C)nc(Nc2n[nH]c(-c3ccccc3N)n2)n1,-3.0,·,·,·,-2,
CN(C(N)=S)c1ccccc1,0.0,-31,-1%,-2,4,
COc1ccc(C(C(=O)NC(C)(C)C)N(C(=O)CCC(=O)Nc2cc(C)on2)c2cccc(F)c2)cc1 (centres undefined),-1.3,·,·,·,2,

# The listing continues:
SMILES,RecA splice inh,YopH inh,Mtb growth,Arbovirus anti,Mtb betalactam,others
CC(NC(=O)COC(=O)CCc1ccc(S(=O)(=O)N2CCOCC2)cc1)C1CC2CCC1C2 (centres undefined),0.6,11,3%,-1,1,
Cc1ccnc(NC(=O)C2CCCN(S(=O)(=O)c3cnc[nH]3)C2)c1 (centres undefined),·,-21,-8%,-3,-3,Arbovirus anti repeat=4
Cc1cc(C)n(-c2ccc(C(=O)OCC(=O)Nc3ccc(S(=O)(=O)N4CCOCC4)cc3)cc2)n1,-1.1,-25,-1%,5,0,
Cc1cc(Nc2ccc(F)cc2Cl)n2nc(C)nc2n1,-1.1,-53,7%,1,1,Arbovirus anti repeat=-2
COc1cc(C(=O)NC(=S)Nc2ccc3oc(=O)ccc3c2)cc(OC)c1OC,0.3,-33,-14%,-6,4,
CN(C(=S)Oc1ccc(C(=O)Nc2ccccc2)cc1)c1ccccc1,-13,-28,10%,2,-4,
CC(=O)Oc1ccc(C(=O)NCCc2ccccc2)cc1,0.5,·,1%,-4,5,
N=c1c(S(=O)(=O)c2ccccc2)cc2c(=O)n3ccccc3nc2n1Cc1cccnc1,-29,·,·,·,-11,
CC(C)(C)OC(=O)[C@H](Cc1ccccc1)NC(=O)c1nc[nH]c1C(=O)NC1CCNCC1,-0.3,·,·,·,-11,
COc1ccc(-c2nc3c(n2O)CCC/C3=N\O)cc1,6.0,5,·,7,·,Arbovirus anti repeat=4
COc1ccc(-n2c(CCc3ccccc3)nnc2SCC(=O)c2ccccc2)cc1,9.2,-10,-3%,-21,-9,

# Compound activity as filed in PubChem.
